Assay outcomes: PubChem BioAssay, Johns Hopkins Ion Channel Center
KCNQ2 pot – KCNQ2 (rat) channel potentiation. O88943. CHO-K1 KCNQ2, FluxOR thallium flux fluorescence; stronger effect = higher value. B-score at 10 µM. 310,000 compounds, 0.54% hits. AID 2239;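 active means fluorescence ratio B-score at least 3 SD of library B-scores, with initial fluorescence B-score within 3 SD, cut at about 5.3 in these data; same plate scores as AID 2156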;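 further: B-score of peak minus minimum over baseline fluorescence ratio after K+ and Tl+ stimulus; positive B-score means potentiation of KCNQ2 with more thallium influx and brighter signal; only the inactives scoring about 0 or higher are listed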
Target sequence (O88943 whole entry, looked up): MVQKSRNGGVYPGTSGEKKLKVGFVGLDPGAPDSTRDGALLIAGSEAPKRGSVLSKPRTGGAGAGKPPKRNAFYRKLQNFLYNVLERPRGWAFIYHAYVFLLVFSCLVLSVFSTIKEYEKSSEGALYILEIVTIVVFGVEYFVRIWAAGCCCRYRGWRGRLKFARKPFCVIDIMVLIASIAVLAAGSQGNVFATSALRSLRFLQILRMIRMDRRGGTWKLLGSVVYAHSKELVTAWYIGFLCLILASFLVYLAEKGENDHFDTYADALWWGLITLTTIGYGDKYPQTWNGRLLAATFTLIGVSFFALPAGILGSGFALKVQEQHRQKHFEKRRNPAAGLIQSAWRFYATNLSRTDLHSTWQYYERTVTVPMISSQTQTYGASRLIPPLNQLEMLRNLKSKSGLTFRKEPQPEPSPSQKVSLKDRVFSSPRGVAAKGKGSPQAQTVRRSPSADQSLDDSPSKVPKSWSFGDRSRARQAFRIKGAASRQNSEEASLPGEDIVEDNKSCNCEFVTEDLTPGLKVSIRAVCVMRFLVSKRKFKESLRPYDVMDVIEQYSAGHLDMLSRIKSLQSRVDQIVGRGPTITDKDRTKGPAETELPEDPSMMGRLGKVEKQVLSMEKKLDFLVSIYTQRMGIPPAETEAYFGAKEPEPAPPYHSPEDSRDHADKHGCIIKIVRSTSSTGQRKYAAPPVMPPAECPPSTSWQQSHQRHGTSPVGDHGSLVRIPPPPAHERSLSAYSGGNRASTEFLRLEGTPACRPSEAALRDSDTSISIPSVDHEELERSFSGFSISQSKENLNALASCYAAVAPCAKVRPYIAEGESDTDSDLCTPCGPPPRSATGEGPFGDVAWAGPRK
KCNQ2 pot baseline – second read-out of KCNQ2 pot, no call of its own (marks repeat the call); B-score; compound at 10 µM; measured here: initial fluorescence intensity artifact check;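 brightness before thallium and not channel activity; 0 = typical well and far values either way flag optical interference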
Active calls of the source: *. This is a subset (hit frequency here may not be typical).

SMILES	KCNQ2 pot	KCNQ2 pot baseline
COc1ccc(-c2noc(CN3CCN(C(=O)c4cccs4)CC3)n2)c(OC)c1OC	1.73	-0.65
Cc1cc(C(=O)NNS(=O)(=O)c2cccc(Cl)c2)nn1C(C)(C)C	0.73	0.27
Cc1ccc(NC(=O)CNC(=O)c2cccs2)cc1S(=O)(=O)Nc1ccc(Cl)cc1	0.72	0.33
COc1ccc(C(=O)Nc2cc(C)nn2-c2cccc(F)c2)cc1OC	0.35	0.55
Cc1ccc2nc(NC(=S)NC(=O)c3cccs3)sc2c1	3.41	-1.27
Cc1ccc2nc(SCC(=O)Nc3ccc4c(c3)OCO4)nc(=O)n2c1	1.3	-0.39
Cc1ccc(C(=O)O)cc1-c1ccc(/C=C2\SC(=O)N(CC(=O)Nc3ccc4c(c3)OCO4)C2=O)o1	0.91	-0.78
CN(C)S(=O)(=O)c1cccc(NC(=O)CSc2nncn2C)c1	0.11	-0.58
Clc1cccc(CSc2ccc(-c3cccnc3)nn2)c1	1.11	-0.15
COC(=O)c1ccccc1NC(=O)N1CSC[C@H]1C(=O)OC	0.43	-0.09
Cc1cccc(NC(=O)C2CCN(S(=O)(=O)c3c(C)c(C)cc(C)c3C)CC2)n1	0.55	0.72
Cc1cc(-c2nn(-c3ccccc3F)cc2CN(C)CC(O)CO)c(C)s1 (centres undefined)	0.32	0.08

Next part (7 carried over from the part before).
SMILES	KCNQ2 pot	KCNQ2 pot baseline
Cc1ccc2nc(SCC(=O)Nc3ccc4c(c3)OCO4)nc(=O)n2c1	1.3	-0.39
Cc1ccc(C(=O)O)cc1-c1ccc(/C=C2\SC(=O)N(CC(=O)Nc3ccc4c(c3)OCO4)C2=O)o1	0.91	-0.78
CN(C)S(=O)(=O)c1cccc(NC(=O)CSc2nncn2C)c1	0.11	-0.58
Clc1cccc(CSc2ccc(-c3cccnc3)nn2)c1	1.11	-0.15
COC(=O)c1ccccc1NC(=O)N1CSC[C@H]1C(=O)OC	0.43	-0.09
Cc1cccc(NC(=O)C2CCN(S(=O)(=O)c3c(C)c(C)cc(C)c3C)CC2)n1	0.55	0.72
Cc1cc(-c2nn(-c3ccccc3F)cc2CN(C)CC(O)CO)c(C)s1 (centres undefined)	0.32	0.08
Cc1nc2sc(C(c3cccs3)N3CCC4(CC3)OCCO4)c(O)n2n1 (centres undefined)	1.09	-3.23
Cc1cc(F)ccc1S(=O)(=O)N1CCCOC1CNC(=O)C(=O)NCCc1ccccc1 (centres undefined)	0.4	-0.52
CC1(C)CC(=O)c2cc(NC(=O)c3ccccc3)c(=O)oc2C1	0.85	-1.72
C/C(=N/NC(=O)CNC(=O)c1cccc(F)c1)c1ccc2c(c1)CCCC2	0.25	0.36
O=C(CCN1C(=O)C2C3CCC(C3)C2C1=O)OCC(=O)c1ccc(Cl)cc1 (centres undefined)	0.99	-0.44
CC(=O)Nc1ccc(S(=O)(=O)Nc2cccc(-n3c(C)nc4ccccc4c3=O)c2)cc1	2.34	-0.33
Cc1cc(OCC(=O)NNC(=S)NC(=O)c2ccc(Br)o2)ccc1Cl	8.11*	0.05*
CCC(=O)N1CCc2cc(Br)cc(S(=O)(=O)NCCCN(CC)Cc3ccccc3)c21	2.15	-0.38
COc1ccccc1N1CCN(C2CCCN(C(=O)CCC(=O)N(C)C)C2)CC1 (centres undefined)	0.81	0.22
CC(=O)N(C(C)=O)n1c(/C=C/c2ccc([N+](=O)[O-])cc2)nc2ccccc2c1=O	0.14	0.79
Cc1cnc([N+](=O)[O-])n1CCOC(=O)NC(=O)c1ccccc1Cl	0.35	0.54
CC(=O)N1CCc2cc(S(=O)(=O)NC(C(=O)NC(C)c3ccccc3)C(C)C)ccc21 (centres undefined)	0.49	0.19
COc1ccc(C(=O)CCC(=O)N2CCN(c3ccc(C)cc3)C(C)C2)cc1 (centres undefined)	0.2	0.08
CCOc1ncccc1C(=O)NCCc1c[nH]c2ccccc12	0.03	0.77
CCOC(=O)N1C(=O)[C@](CC)(c2ccccc2)N1C(=O)OCC	0.2	-0.04
O=C(CCC(=O)c1cccs1)NC1CCCCCC1	1.37	0.12
CN(C)S(=O)(=O)N1CCC(Oc2cccc(C(=O)NCCC3=CCCCC3)c2)CC1	1.33	-1.71
CCN(CC)C(=O)C1=C(C)NC(=S)NC1c1cccs1 (centres undefined)	0.3	-0.11
CC(C)(CN1CCOCC1)NS(=O)(=O)c1ccccc1	2.24	-1.52
CCOC(=O)c1ccc(Nc2ncccc2[N+](=O)[O-])cc1	1.5	-2.07
COc1cccc(C(=O)Nc2ccc3c(c2)CCCN3C(=O)c2cccs2)c1OC	0.35	-1.94
CCOC(=O)C1=C(COC(=O)C2(C)CC2(Cl)Cl)NC(=O)NC1c1ccc(OC)cc1 (centres undefined)	0.05	-0.7
COc1ccccc1OCC(=O)NNC(=O)c1c(-c2ccccc2Cl)noc1C	0.01	-1.2
COc1cc(C(=O)OCC(=O)NC(=O)NC2CCCCC2)cc(Cl)c1OC	0.39	0.2
Cc1nn(Cc2ccccc2)c(C)c1/C=N/NC(=O)c1ccncc1	1.4	0.99
CCOC(=O)c1ccc(NC(=O)c2cn(-c3ccccc3)nc2-c2ccncc2)cc1	0.24	1.32
CCc1c(C)c2cc(Cl)c(O)c(CN(C)C)c2oc1=O	0.56	-1.27
COc1ccc(NC(=O)Nc2cc(C)ccc2OC(F)F)c(OC)c1	0.31	0.05
CCOC(=O)N1CCN(C(=O)c2cccc(-n3c(=S)[nH]c4cc(Cl)ccc4c3=O)c2)CC1	2.15	1.31
COc1ccc(-c2nc(SCc3ccc(C#N)cc3)[nH]c(=O)c2C#N)cc1	2.3	-0.29
COc1ccc(-c2cc(C)no2)cc1S(=O)(=O)N1CCN(C(=O)c2ccco2)CC1	1.78	-0.14
COc1ccc(Cl)cc1N(CC(=O)N1CCCC1)S(C)(=O)=O	0.68	-1.09
Cc1ccc(C)c(NC(=O)CN(C)C(=O)c2cc([N+](=O)[O-])ccc2N2CCOCC2)c1	0.91	-0.49
CC(=O)Nc1ccc(NC(=O)C2CCN(c3c(Cc4ccccc4)c(C)nc4ncnn34)CC2)cc1	0.73	-1.65
CC(C)CN1CCN=C1Nc1ccccc1	1.02	-1.87
CCOc1ccc2nc(SCC(=O)N3CCCCCC3)c(C#N)cc2c1	0.06	0.71
O=C(NC1C2CC3CC(C2)CC1C3)C1CCCCC1 (centres undefined)	1.95	-3.31
CCOc1ccccc1NS(=O)(=O)c1csc(C(N)=O)c1	0.06	-0.45
COc1ccc(C)cc1NC(=O)CSc1nnc(CC(=O)Nc2ccccc2C)n1C	0.26	0.94
CCOc1ccc(N(CC(=O)Nc2ccc(C)cc2C)S(C)(=O)=O)cc1	0.03	0.2
CCOC(=O)c1cnc2ccc(C(=O)OC)cc2c1NCCCN1CCOCC1	0.72	-1.85
Cc1c(NC(=O)c2cccs2)cccc1-c1nc2ccccc2s1	1.65	0.28
Nc1nc(N2CCN(c3ccccn3)CC2)nc2ccccc12	1.1	1.03
CCC(C)(C)c1nnc(NC(=O)C2CC(=O)N(CCc3ccc(F)cc3)C2)s1 (centres undefined)	1.06	-1.39
O=C(Nc1ccc(F)cc1)c1ccc2nc[nH]c2c1	0.01	0.4
CN1CN(C)c2cccc3cccc1c23	0.77	-0.42
S=C(c1ccc2c(c1)OCO2)N1CCCC1	0.35	0.95
COc1ccc(C#Cc2c(-c3ccsc3)oc3ccc(-c4cc(OC)c(OC)c(OC)c4)cc23)cc1	0.93	1.6
O=C(NC(NC1CCS(=O)(=O)C1)C(=O)c1ccccc1)c1ccc(Cl)cc1 (centres undefined)	0.02	0.85
C#CCOCCOCCOCCNc1nc(N2CCN(C(=O)[C@H](CCC(=O)O)n3cc(C(N)CC(C)C)nn3)CC2)nc(N2CCN(C(=O)[C@H](Cc3ccc(O)cc3)n3cc(C(N)[C@H](C)CC)nn3)CC2)n1 (some centres undefined)	0.3	-0.57
CCSCc1nc(N)nc(NCCc2ccccc2)n1	1.66	-0.71
COc1ccc(CC(=O)Nc2ccc(N3CCOCC3)cc2)cc1S(=O)(=O)N1CCOCC1	0.14	0.86
Cn1c(=O)c2c(SCC(=O)N3CCOCC3)nc(C3CC3)nc2n(C)c1=O	1.48	-1.38
CCn1cc(C(=O)Nc2ccccc2)c(=O)c2ccc(C)nc21	0.15	0.01
COc1cccc(NC(=O)Cc2ccccc2)c1	1.05	0.11
N#Cc1cc(-c2ccccc2)oc1NC(=O)c1ccccc1	0.24	2.44
CCn1c(Cc2ccccc2)nnc1SCC(=O)Nc1ccc(S(N)(=O)=O)cc1	0.17	2.3
Cc1cccc(-c2nn(-c3ccccc3)cc2C(=O)Nc2cccc(S(=O)(=O)NC3=NCCC3)c2)c1	0.03	-0.68
Cc1ccc(COc2ccc(/C=N/NC(=O)c3nnn(-c4nonc4N)c3COc3ccc(F)cc3)cc2)cc1	1.31	0.68
COc1cc(OC)cc(-c2nc3ccccc3c(=O)o2)c1	0.39	0.36

Remaining list, next part:
SMILES	KCNQ2 pot	KCNQ2 pot baseline
COCCn1nnnc1C(C(C)C)N(Cc1cccnc1)Cc1ccccc1Cl (centres undefined)	0.38	-0.21
Cc1nnc(SC(C)C#N)n1-c1ccccc1 (centres undefined)	0.58	-4.12
Cc1ccc(C(=O)C(C)OC(=O)CN2C(=O)NC3(CCCC3)C2=O)cc1C (centres undefined)	1.4	-1.29
CN1C(=O)S/C(=C\c2ccccc2OCc2ccc(C(=O)O)cc2)C1=O	1.44	0.01
CC(C)CN1CCN(Cc2ccc(C#CC(C)(C)O)cc2)CC1CCO (centres undefined)	1.16	0.34
Cc1ccc(NC(=O)C2CCN(S(=O)(=O)c3ccc4c(c3)NC(=O)C(C)S4)CC2)c(C)c1 (centres undefined)	2.95	0.85
COc1cccc(NC(=O)c2cccs2)c1	1.89	0.55
CCN(CC)c1nc(SCC(=O)O)nc(N(CC)CC)n1	2.77	0.95
CCCS(=O)(=O)N1CCC(C(=O)NCCCN(C)Cc2ccccc2)CC1	1.43	-0.28
Cc1cc(C)cc(NC(=O)c2cc(C)n(Cc3cccs3)c2C)c1	0.14	-0.12
CCc1nc2sc(C(C)=O)c(N)c2c2c1CCCC2	0.02	-0.33
CN(C)S(=O)(=O)c1cccc(NC(=O)CN2C(=O)NC3(CCc4ccccc4C3)C2=O)c1 (centres undefined)	1.41	-3.68
Cc1ccc(C)c(OCc2cc(C(=O)N(C)Cc3ccccn3)no2)c1	0.42	-0.06
CC(=O)c1ccc(OCCOc2ccc(Cl)c3cccnc23)cc1	0.36	0.16
O=C1CCNCCN1[C@H](CO)Cc1ccccc1	0.6	0.89
CCCNC(=O)[C@H](C)NC(=O)c1ccc(Br)cc1	1.19	-1.45
Cc1cccc(C(=O)NCC(=O)OCC(=O)N(C)CC(=O)Nc2ccc(F)cc2)c1	0.8	0.11
CCN(C(=O)COC(=O)CNS(=O)(=O)c1ccc(SC)c([N+](=O)[O-])c1)C1CCCCC1	1.22	1.26
CCOc1ccc(CCNC(=O)c2cc(-c3ccccc3)c(N3CCOCC3)s2)cc1	0.19	0.13
CC(C)C(=O)Nc1ccc(C(=O)NNC(=S)NC(=O)c2cccs2)cc1	0.06	0.19
O=C(c1ccc2nc(Cc3cccc(Cl)c3)oc2c1)N1CCOCC1	1	0.11
O=C(COc1ccc(Cl)cc1Cl)Nc1nc2n(n1)C(c1ccccc1)CC(=O)N2 (centres undefined)	0.53	0.25
Brc1ccc2ncnc(NCc3ccccc3)c2c1	2.84	-0.25
CC1CCN(S(=O)(=O)c2ccc(C(=O)N3CCCC(C(F)(F)F)C3)cc2)CC1 (centres undefined)	0.58	-1.48

Of the compounds above, 5 contain a furan ring, fused or not:
SMILES	KCNQ2 pot	KCNQ2 pot baseline
Cc1ccc(C(=O)O)cc1-c1ccc(/C=C2\SC(=O)N(CC(=O)Nc3ccc4c(c3)OCO4)C2=O)o1	0.91	-0.78
Cc1cc(OCC(=O)NNC(=S)NC(=O)c2ccc(Br)o2)ccc1Cl	8.11*	0.05*
COc1ccc(-c2cc(C)no2)cc1S(=O)(=O)N1CCN(C(=O)c2ccco2)CC1	1.78	-0.14
COc1ccc(C#Cc2c(-c3ccsc3)oc3ccc(-c4cc(OC)c(OC)c(OC)c4)cc23)cc1	0.93	1.6
N#Cc1cc(-c2ccccc2)oc1NC(=O)c1ccccc1	0.24	2.44

Carrying on.
SMILES	KCNQ2 pot	KCNQ2 pot baseline
O=C(NS(=O)(=O)Oc1ccc(Cl)cc1)OC[C@@H]1CCCN2CCCC[C@H]12	0.58	0.27
COCCCNC(=O)c1ccc(C(=O)NCCCOC)cc1	1.09	-1.7
CSc1ncc(Cl)c(C(=O)Nc2cccc3ccccc23)n1	1.41	-0.42
CC(C)c1nc2oc3c(NCCO)ncnc3c2c2c1COC(C)(C)C2	1.09	0.14
Cc1[nH]c(=O)c(C(=O)c2cc(Cl)ccc2O)cc1C(=O)O	0.06	0.58
CCc1nnc(NC(=O)c2ccc3ncsc3c2)s1	0.65	0.67
CSC1=C(C#N)C(c2ccc(C)s2)CC(=O)N1 (centres undefined)	0.49	-0.13
NCCCC[C@H]1CNC(=O)C(=O)N1CCc1cccc2ccccc12	0.52	0.31
CS(=O)(=O)N(Cc1ccc(C(=O)NCc2ccco2)cc1)c1ccccc1	1.43	0
CC(C)NC(=O)COc1ccc(OCc2ccccc2)cc1	1.23	0.56
O=C(CNc1ccc2c(c1)OCO2)N/N=C\c1cn(Cc2ccccc2)c2ccccc12	2.53	-1.66
COC(=O)C1=C(C)NC2=C(C(=O)CCC2)C1c1ccc(-c2ccsc2C(=O)OC)o1 (centres undefined)	0.97	0.7
O=C(Cc1cc(=O)oc2cc(O)ccc12)NC(Cc1ccc(Cl)cc1)C(=O)O (centres undefined)	0.15	-0.1
CCNc1nc(NCC)n2c(SCC(=O)Nc3ccc(F)cc3)nnc2n1	0.35	0.08
COc1cccc(CNC(=O)CNC(=O)c2cccs2)c1	0.01	2.11
CCCc1nnc(NC(=O)CCC(=O)O)s1	0.54	0.02
COC(=O)Cc1cc(=O)n2[nH]c(C)nc2n1	0.51	-0.54
CCc1ccc(-c2nc(CS(=O)CC(=O)NC3CCCCCC3)c(C)o2)cc1 (centres undefined)	4.03	-2.61
